YopH inh: YopH tyrosine phosphatase inhibitors, primary screen, biochemical, fluorescence Ex485/Em525; YopH tyrosine phosphatase [Yersinia enterocolitica]; AID 898, 2007; inhibition, %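 (about 10 µM by stock and volumes)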; hit rate 0.16% among 140,000;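 active = inhibition of 50% or more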;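 note: controls were vehicle for no effect and minimum signal wells for full effect; inactives centre near -20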
Arbovirus inh: antivirals against arbovirus infection, primary screen, cell-based, full library, 10K replicate subset; arbovirus infection cell-based antiviral screen; AID 1251, 2008; inhibition, % at 10 µM; hit rate 0.37% among 200,000;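 active = inhibition from about 30%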;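 note: bluetongue infection of BSR cells; cell survival read as ATP light after 72 h; 0% = infected wells without compound and 100% = uninfected wells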
Mtb bLac sens: beta-lactam sensitization of Mtb H37Rv, H37Rv. M. tuberculosis H37Rv growth with meropenem, percent inhibition; hits of this screen are not shown here. inhibition, % at 25 µM. hit rate 0.27% among 330,000. AID 434955, 2010;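 active = about 74% or more and at least 40 points above the plate without the antibiotic, then above 30% in a dose series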;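 note: growth measured after seven days incubation then overnight dye step; 0% = bacteria only wells and 100% = bacteria with antibiotic; twin plates without the antibiotic show which effects depend on it; some results filed as inactive read as strong as hits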
Mtb growth: M. tuberculosis H37Rv growth inhibitors, H37Rv strain (AID 1626). M. tuberculosis H37Rv growth inhibition; higher % means a stronger effect. one-dose inhibition, % at 10 µM; IC50 in µM for titrated hits. hit rate 0.95% among 220,000;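 active = confirmed in a dose series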;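 note: bacteria incubated seven days before Alamar blue readout; 0% = bacteria only wells and 100% = bacteria with antibiotic wells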
RecA splice inh: Mtb RecA intein splicing inhibitors, primary screen, biochemical, fluorescence, HTS; inhibition, %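 (about 9 µM by stock and volumes)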; hit rate 0.75% among 290,000; Protein RecA (Mycobacterium tuberculosis (strain ATCC 25618 / H37Rv)), P9WHJ3; AID 2221, 2009; cell-free RecA intein splicing; in the data active = inhibition above about 30%;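 note: 0% = vehicle wells and 100% = reference inhibitor control wells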
Target sequence (P9WHJ3 whole entry, looked up, canonical isoform): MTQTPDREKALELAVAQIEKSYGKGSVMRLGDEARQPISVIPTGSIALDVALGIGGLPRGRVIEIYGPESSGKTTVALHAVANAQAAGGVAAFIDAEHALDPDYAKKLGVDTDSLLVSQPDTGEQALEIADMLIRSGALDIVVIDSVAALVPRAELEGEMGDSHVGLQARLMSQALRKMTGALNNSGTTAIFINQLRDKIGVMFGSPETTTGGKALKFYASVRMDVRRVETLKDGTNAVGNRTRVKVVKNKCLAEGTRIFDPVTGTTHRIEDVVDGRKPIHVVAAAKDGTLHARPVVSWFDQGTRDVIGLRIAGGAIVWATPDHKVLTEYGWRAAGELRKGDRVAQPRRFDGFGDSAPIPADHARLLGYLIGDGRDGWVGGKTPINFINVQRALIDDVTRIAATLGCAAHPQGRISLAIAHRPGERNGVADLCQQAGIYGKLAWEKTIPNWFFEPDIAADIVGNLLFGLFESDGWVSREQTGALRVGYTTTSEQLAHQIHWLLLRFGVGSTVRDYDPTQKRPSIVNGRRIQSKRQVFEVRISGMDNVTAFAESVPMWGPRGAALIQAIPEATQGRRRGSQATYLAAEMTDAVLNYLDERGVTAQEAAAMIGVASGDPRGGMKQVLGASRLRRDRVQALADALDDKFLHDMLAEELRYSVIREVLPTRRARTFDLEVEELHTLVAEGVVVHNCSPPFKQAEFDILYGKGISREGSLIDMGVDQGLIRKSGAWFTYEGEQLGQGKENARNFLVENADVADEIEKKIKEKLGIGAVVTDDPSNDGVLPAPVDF
Arbovirus inh repeat: recorded beside Arbovirus inh, whose call it bears; inhibition, %; measured here: 10K subset replicate screen; many hits read low in the repeat;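 first of two repeat runs on a subset; 0% = infected and 100% = uninfected wells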
Active calls of the source: *; nt = not tested or not shown. Some of the compounds tested; count on the stated rates, not on these rows.

SMILES	YopH inh	Arbovirus inh	Mtb bLac sens	Mtb growth	RecA splice inh	others
COCCCn1c(SCc2cccc(C(F)(F)F)c2)nc2cc(OC)c(OC)cc2c1=N	-3	-33	42	3%	2.0
COC(=O)N/N=C(\C)c1ccco1	nt	-3	4	-4%	2.3
COc1ccc(Cn2c(CCC(=O)O)nc3cccnc32)cc1	-9	0	-8	-3%	nt
CCc1ccc(NC(=O)C(=O)NCc2ccccn2)cc1	nt	-11	-3	-2%	0.2
NC(=O)C(Cc1ccccc1)N1C(=O)c2ccccc2C1=O (configuration not stated)	nt	4	15	-6%	-2.1
COc1ccccc1C(=O)N1CC2(C)CC1CC(C)(C)C2 (configuration not stated)	-23	4	-3	-3%	8.0
CC(=O)OC1N=C(c2ccccc2)c2ccccc2NC1=O (configuration not stated)	-32	8	-5	5%	-1.3
O=C(Nc1ccccc1)OC1CCCCc2cccnc21 (configuration not stated)	nt	nt	-3	0%	2.1
CNc1nc(C)c(C#N)c(-c2ccccc2)c1C(C)=O	0	-4	-10	-1%	1.0
Cc1c(NC(=O)CSc2ccc(Cl)cc2)cccc1-c1nc2ncccc2o1	-29	2	6	-8%	10
Cc1ccc(CN2CCN(Cc3ccc4ncccc4c3)CC2CCO)cc1 (configuration not stated)	nt	4	-7	-12%	4.2
O=[N+]([O-])c1cc(C(F)(F)F)ccc1NCCc1c[nH]c2ccccc12	-26	-33	98	25%	-2.3
COc1ccc(-n2c(C)cc(C(=O)CN3C(=O)NC4(CCc5ccccc54)C3=O)c2C)cc1 (configuration not stated)	-20	-26	90	51%	4.0
COc1ccc(/C=C/C(=O)Nc2cc(S(=O)(=O)N3CCCCC3)ccc2N2CCCCC2)cc1OC	28	4	9	4%	-1.1
Cc1cc(C(F)F)nn1CC(=O)NC1C(=O)N2C(C(=O)O)=C(CSc3nnnn3C)CSC12 (configuration not stated)	nt	-4	51	-3%	25
CN(C)c1nc(C(=O)OCCO)nc(N(C)C)n1	2	1	1	-4%	-1.8
CC(=O)c1sc(NC(=O)c2ccc(Cl)cc2)nc1C	nt	nt	-2	nt	0.2
CC(Cl)(Cl)/C(=N/P(=S)(N1CCOCC1)N1CCOCC1)N1CCOCC1	nt	nt	-2	-1%	3.8
O=c1[nH]c(SCc2nc3ccccc3c(=O)n2-c2ccccc2C(F)(F)F)nc2ccccc12	-11	19	90	15%	2.5
COc1ccc(-c2noc(CSc3nnc(CCc4ccccc4)n3-c3ccccc3)n2)cc1OC	-13	-9	4	7%	4.6
O=S(=O)(Nc1ccc(C(F)(F)F)cc1)c1cnc[nH]1	-20	2	-6	0%	0.8
CCOc1ccc(S(=O)(=O)N(C)c2ccc(OCC(=O)NCC3CCCO3)cc2)cc1 (configuration not stated)	nt	1	-7	-2%	0.0
COc1ccc(CCNC(=O)C2CCCN(S(C)(=O)=O)C2)cc1 (configuration not stated)	nt	nt	1	nt	2.1
O=C1C(Oc2ccccc2)C(c2cccs2)N1Cc1ccc2c(c1)OCO2 (configuration not stated)	-36	-9	-6	-2%	-2.4
Cc1ccc(S(=O)(=O)N2CCCCC2)cc1C(=O)NCCc1ccccc1	nt	nt	-7	nt	-0.2

(next part)
SMILES	YopH inh	Arbovirus inh	Mtb bLac sens	Mtb growth	RecA splice inh	others
O=C(NCc1cccs1)c1cc(-c2ccccc2)nc2ccccc12	-21	5	80	19%	3.5
COc1ccc(-c2nnc3ccc(SCC(=O)Nc4nccs4)nn23)cc1OC	-27	-6	-4	-8%	0.3
COc1cc2c(cc1OC)C(c1ccc(SC)cc1)CC(=O)N2 (configuration not stated)	nt	nt	-10	nt	-1.8
CCN(CC)CCCN(Cc1cc2cc3c(cc2[nH]c1=O)OCO3)C(=S)Nc1ccccc1	nt	5	-17	-6%	-0.4
COc1ccc(C(CC(=O)Nc2ccc(C)cc2)NC(=O)C(F)(F)F)cc1 (configuration not stated)	-48	-7	-1	5%	-6.3
COc1ccccc1C1CC(c2ccc(NS(C)(=O)=O)cc2)=NN1S(=O)(=O)c1ccccc1 (configuration not stated)	nt	nt	-3	nt	5.4
COc1ccc(C(=O)N2CCCC(c3nc(-c4ccc(OC)c(OC)c4)no3)C2)c(OC)c1 (configuration not stated)	-11	1	-6	0%	3.8
Cc1ccc(S(=O)(=O)c2ncccc2N)cc1	nt	nt	1	nt	0.8
Cc1ccc2ccc(S(=O)(=O)n3nc(C)cc3C)cc2c1	-49	-1	11	4%	6.2	Arbovirus inh repeat=6
CCCC(=O)N1CCN(c2ccc(NC(=O)c3ccccc3)cc2)CC1	-44	1	9	-10%	nt
COc1ccc(NC(=O)CSCC(=O)N2CCCc3ccccc32)cc1	nt	nt	-11	nt	5.7
CCOC(=O)c1c(C)c(C#N)c2c3ccccc3ccn12	10	-3	-3	4%	-1.9
Cn1c(=O)oc2cc(S(=O)(=O)N3CCC(C(=O)N4CCc5ccccc5C4)CC3)ccc21	-32	9	3	nt	3.6
COc1ccc(C(=O)Nc2ccc3[nH]ccc3c2)cc1	nt	nt	-16	nt	3.7
Cc1nnc(Sc2c(-c3ccccc3)c3ccc(Cl)cc3[nH]c2=O)s1	-5	5	-8	7%	18
O=C1NC2=C(C(=O)CCC2)C(c2ccccc2[N+](=O)[O-])N1 (configuration not stated)	nt	nt	7	nt	-1.0
Cc1c([N+](=O)[O-])cc(C(=O)Oc2cccc(C(=S)N3CCOCC3)c2)cc1[N+](=O)[O-]	nt	4	1	-12%	-2.2
CCCn1c(SCC(=O)Nc2ccc(Cl)cc2)n[nH]c1=O	nt	10	-2	-2%	2.1
COC(=O)c1ccccc1SC1CC(=O)N(c2ccccc2)C1=O (configuration not stated)	-17	-3	0	2%	-2.2
CCOC(=O)CN1N=C(c2ccc(Cl)s2)CSC1=O	-22	-2	1	-2%	-0.1
O=S(=O)(Cc1ccccc1)N1CCC(N2CCN(c3ccccc3)CC2)CC1	-45	-8	-5	-3%	0.0
O=C(NCCCN1CCOCC1)c1cc(-c2ccc(O)cc2)on1	-25	-1	-6	-4%	5.7	Arbovirus inh repeat=-1
COc1ccc(-c2ncncc2-c2ccc(OC)c(OC)c2)c(O)c1	nt	nt	-2	nt	-1.1
CC(C)(C)C(=O)Nc1ccc(C(=O)NNC(=O)c2ccccc2)cc1	nt	4	-6	-1%	-1.7
O=C1N/C(=C/c2ccc(N3CCCC3)cc2)C(=O)N1c1ccccc1	-15	-18	-9	3%	-4.1

Next part, starting with the last two of the part before.
SMILES	YopH inh	Arbovirus inh	Mtb bLac sens	Mtb growth	RecA splice inh	others
CC(C)(C)C(=O)Nc1ccc(C(=O)NNC(=O)c2ccccc2)cc1	nt	4	-6	-1%	-1.7
O=C1N/C(=C/c2ccc(N3CCCC3)cc2)C(=O)N1c1ccccc1	-15	-18	-9	3%	-4.1
COC(=O)c1sc2nc(CN3CCN(c4cccc(C(F)(F)F)c4)CC3)[nH]c(=O)c2c1C	-14	8	-4	51%	-2.3
Cc1csc(OCc2ccc(C#N)cc2)n1	-4	1	4	-5%	nt
O=C(c1nc2ccc(Cl)cn2c1CN1CCC[C@H]1CO)N1CCCCCCC1	nt	nt	-12	nt	-2.9
COc1ccc(OCC(=O)Nc2ccc3c(c2)nc(CCN2CCOCC2)n3C)cc1	-21	-2	93	-3%	1.3
CCOC(=O)c1sc(-c2ccc(F)cc2)cc1N	-8	4	69	4%	0.9
CC(=O)c1cccc(NC(=O)CNC(=O)c2cc3ccccc3o2)c1	nt	nt	2	nt	0.6
COc1ccc(-c2cc(C(=O)N(C)CC(=O)Nc3ccccc3Cl)c3ccccc3n2)cc1OC	nt	nt	-3	nt	2.6
CCC(C)c1ccc(NC(=S)Nc2ccc(OC)cc2C)cc1 (configuration not stated)	-11	11	-5	7%	8.2
CC(C)C(=O)N1CCN(c2ccccc2NC(=O)Cc2ccc(Cl)cc2)CC1	-36	-2	1	-8%	0.2
Cc1cccc(OCCCC(=O)O)c1C	-34	1	2	1%	0.3
CCOC(=O)C1(CCOC)CCN(CC(C)Cc2ccc3c(c2)OCO3)CC1 (configuration not stated)	nt	nt	-5	nt	-0.9
CCCn1c(=O)c2[nH]cnc2n(-c2ccc(Cl)cc2)c1=O	nt	nt	-1	0%	-1.8
O=C(COC(=O)/C=C/c1ccc(S(=O)(=O)N2CCOCC2)cc1)NC1CCCCCCC1	nt	5	1	0%	2.4
Cc1cccc(N)c1-c1c(C)cccc1N	nt	17	1	4%	-0.9
O=C(COc1ccccc1)NCC(=O)Nc1cccc(S(=O)(=O)NC2=NCCC2)c1	nt	16	4	-10%	1.2
CC(C)(C)C(=O)Nc1ccc(C(=O)N/N=C/c2ccccc2OC(=O)c2ccc(Cl)cc2)cc1	-6	-28	68	26%	6.7
O=C1CC[C@@H](CN(Cc2ccccn2)Cc2nc(Cc3ccccc3)no2)N1	nt	5	-9	-7%	-0.4
CCCOc1cc(C)c(S(=O)(=O)NC2CC(C)(C)NC(C)(C)C2)cc1C	-22	-24	-12	-1%	-6.0
CCOC(=O)Cn1c(=NC(=O)CC)sc2c(C)cc(C)cc21	nt	nt	12	-8%	-0.5
CCOc1ccc(S(=O)(=O)N2CCC(C(=O)N3CCN(c4ccccc4F)CC3)CC2)cc1C	nt	nt	-8	nt	1.2
C#CCOC(=O)c1ccccc1C(=O)N(CC)CC	-16	4	-2	-6%	0.8
O=C(O)C(Cc1c[nH]c2ccccc12)NS(=O)(=O)c1ccc(Cl)cc1 (configuration not stated)	nt	3	2	5%	-3.2
CNC(=O)[C@H](C)[C@@H]1C[C@@]1(C)[C@@H](NC(=O)OCc1ccccc1)c1ccccc1	-22	2	-2	-9%	2.6
Cc1cccc(C(=O)N(Cc2ccc(C)o2)C2CCS(=O)(=O)C2)c1 (configuration not stated)	nt	nt	-20	nt	-1.3
CC(OC(=O)CC(NC(=O)c1ccccc1Cl)c1ccccc1)C(=O)Nc1cccc(Cl)c1Cl (configuration not stated)	-8	0	0	-2%	-0.2

The final 2 records of the section above open the next one:
SMILES	YopH inh	Arbovirus inh	Mtb bLac sens	Mtb growth	RecA splice inh	others
Cc1cccc(C(=O)N(Cc2ccc(C)o2)C2CCS(=O)(=O)C2)c1 (configuration not stated)	nt	nt	-20	nt	-1.3
CC(OC(=O)CC(NC(=O)c1ccccc1Cl)c1ccccc1)C(=O)Nc1cccc(Cl)c1Cl (configuration not stated)	-8	0	0	-2%	-0.2
COCCn1c(=S)[nH]c2cc(C(=O)N3CC(C)CC(C)C3)ccc2c1=O (configuration not stated)	nt	nt	-9	nt	-3.7
COc1ccnc(NCc2ccc(Cl)cc2)c1C#N	-44	-8	10	11%	-0.3
O=C(NCCc1ccc(Cl)cc1)C(=O)c1c[nH]c2ccccc12	nt	nt	-8	nt	0.7
N#C/C(=C\c1ccc(Cl)cc1Cl)c1n[nH]c(Cn2cncn2)n1	-19	7	5	-5%	5.8
Cc1ccccc1/C=N/Nc1nc2ccccc2c(=O)n1O	nt	nt	-6	5%	nt
CCCc1oc(C(=O)O)cc1CN1CCOCC1	-16	4	5	-4%	0.3
CCN(CC)S(=O)(=O)c1cccc(NC(=O)CNc2cccc(S(=O)(=O)N3CCOCC3)c2)c1	nt	nt	-5	nt	2.3
COc1ccc(/C=C(\C#N)C(=O)Nc2cc(S(=O)(=O)N3CCOCC3)ccc2N2CCCC2)cc1	-22	-4	5	0%	5.4
O=C(Nc1cccc(F)c1)NC1CCN(Cc2ccccc2)CC1	nt	-18	-9	2%	0.2
CCN(C(=O)CN1c2ccccc2CC1C)c1c(N)n(Cc2ccccc2)c(=O)[nH]c1=O (configuration not stated)	nt	12	-3	3%	-0.4
O=C(NC(=O)N1CCN(c2cccc(Cl)c2)CC1)c1ccccc1	6	-19	-5	-8%	0.1
COc1ccc(-c2nc3ccccc3n2Cc2ccccc2)cc1	-16	1	50	9%	7.0
CC1CCCC(C)N1C(=O)COC(=O)C(Cc1ccccc1)NC(=O)c1cccs1 (configuration not stated)	-13	2	-2	9%	0.6
N#C/C(=C\c1ccc(Cl)c([N+](=O)[O-])c1)c1ccccn1	nt	-11	7	6%	5.2
CC1CCN(c2cc(N3CCOCC3)c(F)cc2[N+](=O)[O-])CC1	-26	1	2	2%	2.1
CC(C)CCNC(=O)NC(=O)CSc1nnc2ccccn12	0	5	-9	-5%	-0.7
COc1ccc(CNC(=O)c2nn(-c3ccccc3)cc2OC)cc1	nt	nt	4	nt	1.1

Part of the list above in order of heavy-atom count, lowest first.
SMILES	YopH inh	Arbovirus inh	Mtb bLac sens	Mtb growth	RecA splice inh	others
CC(C)CCNC(=O)NC(=O)CSc1nnc2ccccn12	0	5	-9	-5%	-0.7
O=C(NC(=O)N1CCN(c2cccc(Cl)c2)CC1)c1ccccc1	6	-19	-5	-8%	0.1
COCCn1c(=S)[nH]c2cc(C(=O)N3CC(C)CC(C)C3)ccc2c1=O (configuration not stated)	nt	nt	-9	nt	-3.7
CCN(C(=O)CN1c2ccccc2CC1C)c1c(N)n(Cc2ccccc2)c(=O)[nH]c1=O (configuration not stated)	nt	12	-3	3%	-0.4

Screening data: PubChem, several laboratories
